# A1 inh: inhibitors of the anti-apoptotic protein A1, read as caspase activation; MEF A1-2A-BIM cells, Caspase-Glo 3/7 luminescence, 3 h; percent of clofoctol response, vehicle zero; caspase activation, % (no concentration beside the values); 0.066% of 330,000 active; AID 2462;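 active = over half of replicate activation scores above 10%, or exactly half above 10 with the replicate mean above 10; inconclusive = replicate mean below 10 yet half the replicates above 10; inactive = over half of replicates below 10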;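 note: wells of about 30 µL received 50 nL stock; many hits fall short of the cut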
# Vif A3G: HIV-1 Vif–A3G interaction blockers – biochemical, TR-FRET, GST-Vif 1-94, biotin-A3G peptide, dose response retest, primary screen (AID 1117319). TR-FRET GST-Vif / biotin-A3G peptide binding; higher % means a stronger effect; test concentration not given here; strong numbers were not always called active. 0.57% of 260,000 active. inhibition, %, or IC50 in µM where a hit was titrated;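 active = above the screen mean plus three standard deviations and confirmed in dose response; inconclusive = results disagree or hit not tested in dose response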;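 note: Vif residues 1-94 fused to GST binding biotinylated APOBEC3G peptide 110-148; 0% = full assay without inhibitor and 100% = GST in place of GST-Vif; retest series ran down from 100 µM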
# T cruzi repl: T. cruzi replication inhibition; T. cruzi beta-gal in NIH3T3, luminescence, 90 h; inhibition, % (test concentration not listed); 1.4% of 300,000 active;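 active = mean inhibition across valid replicates above about 55%, limit read from the data; inconclusive = mean below that limit but half or more replicates reach it; inactive = mean below it, under half of replicates reach it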;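 note: signal also drops with host cell toxicity which is not excluded here; 0% = plate median of DMSO wells and 100% = zero luminescence signal; higher percent means less beta-gal luminescence so fewer parasites; stock transfer was 50 nL into about 50 µL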
# Beta apoptosis: blocks beta cell apoptosis; INS-1E cytokine-induced death, ATP luminescence, 48 h; percent of positive-control rescue, neutral wells zero; protection from apoptosis, % (concentration not given with the values); 0.8% of 300,000 active;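 active = all replicates at 75% or more, or half of them and the mean; inconclusive = half reach 75% but not the mean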;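 note: 0% = cytokine-treated negative control wells and 100% = positive control rescue; higher means more ATP so stronger rescue from cytokine killing; wells of about 40 µL received 100 nL stock; the first replicate is given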
# LANA-H2B inh: blocks KSHV LANA binding to histone H2A/H2B; Q9QR71; cell-free LANA-H2A/H2B peptide, fluorescence polarization; inhibition, % (no concentration beside the values); 0.6% of 320,000 active; in the data active = inhibition mostly above about 10%, no sharp cut-off; inactive = mostly below about 6.7%;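 note: stock transfer was 7.5 nL into about 10 µL; 0% = median of vehicle wells and 100% = median of positive control wells; one replicate is shown; the record names a cut of 25% in any replicate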
# Target sequence (Q9QR71 whole entry, looked up): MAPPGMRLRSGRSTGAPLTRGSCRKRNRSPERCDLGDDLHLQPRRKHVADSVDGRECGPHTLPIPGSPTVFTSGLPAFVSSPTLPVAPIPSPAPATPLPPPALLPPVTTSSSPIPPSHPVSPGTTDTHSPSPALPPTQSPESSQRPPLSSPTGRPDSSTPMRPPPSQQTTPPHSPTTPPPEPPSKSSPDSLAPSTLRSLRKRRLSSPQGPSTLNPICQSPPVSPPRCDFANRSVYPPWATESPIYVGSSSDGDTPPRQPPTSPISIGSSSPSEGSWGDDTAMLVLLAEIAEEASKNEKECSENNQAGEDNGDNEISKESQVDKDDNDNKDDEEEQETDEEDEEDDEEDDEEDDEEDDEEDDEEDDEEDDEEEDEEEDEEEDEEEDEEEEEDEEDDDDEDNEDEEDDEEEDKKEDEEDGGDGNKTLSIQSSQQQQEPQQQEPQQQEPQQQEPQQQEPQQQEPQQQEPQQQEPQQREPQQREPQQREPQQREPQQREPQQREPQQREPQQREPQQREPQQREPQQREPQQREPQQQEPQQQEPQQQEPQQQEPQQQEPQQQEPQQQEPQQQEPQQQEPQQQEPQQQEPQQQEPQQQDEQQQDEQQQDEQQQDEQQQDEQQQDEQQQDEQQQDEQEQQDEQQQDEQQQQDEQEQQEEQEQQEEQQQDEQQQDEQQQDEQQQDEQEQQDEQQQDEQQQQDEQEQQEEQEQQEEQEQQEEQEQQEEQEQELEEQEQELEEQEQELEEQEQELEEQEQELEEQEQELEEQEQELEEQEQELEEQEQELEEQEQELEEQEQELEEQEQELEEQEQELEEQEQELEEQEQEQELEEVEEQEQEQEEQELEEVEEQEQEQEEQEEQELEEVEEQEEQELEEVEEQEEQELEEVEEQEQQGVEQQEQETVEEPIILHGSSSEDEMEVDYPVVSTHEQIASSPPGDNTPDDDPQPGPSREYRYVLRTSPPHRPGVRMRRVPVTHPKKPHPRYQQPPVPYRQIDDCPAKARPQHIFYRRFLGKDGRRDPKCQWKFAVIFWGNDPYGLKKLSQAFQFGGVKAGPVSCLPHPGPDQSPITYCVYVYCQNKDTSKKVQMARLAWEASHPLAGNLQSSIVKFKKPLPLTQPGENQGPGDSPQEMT
# Calb FLC: affects C. albicans growth with fluconazole. C. albicans CaCi-2 (fluconazole-resistant clinical isolate) + fluconazole, Alamar Blue growth, 48 h. growth inhibition, % (no concentration beside the values). 0.57% of 300,000 active. AID 1979;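 active = most replicates above 75%; inconclusive = exactly half above 75%; inactive = most below 75%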;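 note: all wells also contain fluconazole at 8 µg/ml as a sub-toxic cotreatment; 0% = median of DMSO wells and 100% = median of geldanamycin control wells; wells of about 8 µL received 7.5 nL stock; the first replicate is given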
# RanGTP-Impb inh: disruptors of Ran-importin-beta complex formation – biochemical, FRET, CFP-Ran, YFP-importin-beta, homogeneous, primary screen | cell-free CFP-Ran/YFP-importin-beta FRET ratio | inhibition, % (test concentration not listed) | 1.1% of 300,000 active;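 active = most replicates above 15%; inconclusive = exactly half above 15%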;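 note: 0% = DMSO wells and 100% = Ran loaded with GDP instead of GTP; wells of about 40 µL received 100 nL stock; the first replicate is given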
# AF4-AF9 inh: MLL-AF4/AF9 protein interaction inhibition; AlphaScreen, biotin-AF4 peptide binding to FLAG-AF9; inhibition, % at 10 µM; 0.47% of 350,000 active;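 active = every replicate reaching a set inhibition limit, whatever the replicate mean, cut at about 25% in these data; inconclusive = mean inhibition reaches that limit but some replicates miss it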;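 note: 0% = plate neutral control median and 100% = total signal loss; the record names both 10 and 1 µM as test concentration; the first replicate is given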
# Active calls of the source: *; ? = inconclusive; / = not tested or not shown; & = joins results of further samples. Rows were taken by chance; overall some 4.3% were active at least once.
Molecule,AF4-AF9 inh,A1 inh,Calb FLC,T cruzi repl,Beta apoptosis,LANA-H2B inh,RanGTP-Impb inh,Vif A3G
Cc1ccc(-c2cc(C(=O)Nc3ccc(S(=O)(=O)Nc4nccs4)cc3)c3ccccc3n2)c(C)c1,/,1.9,4,3,-5,-1.8,-3.6,/
CCOc1ccc(C2CC(c3cccc(C)c3)n3ncnc3N2)cc1 (stereo not drawn),1.3,0.5,0,28,-3,-3.1,8.3,0%
Cc1ccc(OCCn2c(Br)nc3c2c(=O)n(C)c(=O)n3C)cc1,/,0.0,-7,0,8,-3.6,1.3,0%
COc1cccc(-n2nnc3c(=O)n(CC(=O)OCc4ccccc4)cnc32)c1,/,-0.4,-1,-13,-3,4.0,0.5,/
O=C(CN1C(=O)C(=O)c2ccccc21)c1ccccc1,-5.0,0.6,-4,-7,-12,5.6,3.2,-3%
CN(C)C(CNC(=O)Cc1cccc(C(F)(F)F)c1)c1ccco1 (stereo not drawn),0.9,0.8,-3,-2,-14,0.8,-3.2,21%
CS(=O)(=O)N(CC(=O)NC1CC2CCC1C2)c1cccc(C(F)(F)F)c1 (stereo not drawn),/,0.2,-2,14,1,-1.2,0.8,-1%
Cc1ccc(C)c(NC(=O)CSc2nnc(-c3ccncc3)o2)c1,-2.2,1.3,1,-14,-2,5.6,-3.7,3%
CN1CCN(c2nc(-c3ccc(Cl)cc3Cl)nc3ccccc23)CC1,5.7,0.0,-6,30,-8,-0.2,6.5,-4%
CC(C)CCN1CCN(Cc2cccc(-n3cccn3)c2)CC1CCO (stereo not drawn),-8.4,0.3,7,9,-4,2.1,?,33%
Nc1scc2c(C(=O)N/N=C/c3ccc(Cl)cc3)nn(-c3ccccc3)c(=O)c12,/,-0.1,?,-7,-1,2.2,-13,?
CCOCCCN(C(=O)CNC(=O)c1ccco1)C(C(=O)NC1CCCC1)c1ccccc1C (stereo not drawn),/,0.5,-7,4,-5,4.0,0.2,-3%
COc1ccc(N/C(=C/[N+](=O)[O-])SC)cc1,-3.6,0.3,-8,-17,4,2.4,1.0,4%
CC(C)Cn1c2c(c(=O)[nH]c1=O)C(NS(=O)(=O)c1ccc(Cl)cc1)(C(F)(F)F)C(=O)N2 (stereo not drawn),-0.9,-1.1,1,-4,-1,-0.5,3.7,-6%
CN(CC(=O)Nc1ccccc1Br)C(=O)c1ccccc1-c1nc2ccccc2s1,-0.5,-0.5,3,3,-5,-3.6,0.8,/
CCC1(C)NC(C(=O)O)Cc2c1[nH]c1ccccc21 (stereo not drawn),0.3,0.7,-6,-6,/,5.5,5.5,-1%
CCCCc1nnc(NC(=O)C2CC(=O)N(c3ccc(C)cc3)C2)s1 (stereo not drawn),1.7,-0.2,11,-7,-9,1.9,0.4,4%
COc1cc(/C=C/C(=O)Nc2ccc3[nH]c(=O)[nH]c3c2)cc(OC)c1OC,-1.0,1.1,-3,-15,7,1.4,0.4,-1%
CCOC(=O)Nc1cccc(OCC(=O)Nc2ccccc2OC)c1,/,2.2,21,17,0,2.3,-2.7,-4%&-6%
Cc1ccc(NC(=O)NNC(=O)C2CC(c3cccs3)=NO2)cc1 (stereo not drawn),-2.3,0.5,6,-12,-5,4.3,2.3,/
O=C(CCc1ccccc1)NCCC1=CCCCC1,2.0,0.1,4,2,-2,-1.1,0.9,/
CCOc1ccc(NCc2cc3c(C(C)(C)C)nn(-c4ccccc4)c3[nH]c2=O)cc1,11,-0.3,-13,16,-16,-4.4,-0.3,0%
COc1ccc(/C=C2/SC(=O)N(CCC(=O)Nc3ccc(S(=O)(=O)Nc4nccs4)cc3)C2=O)cc1,/,-1.0,-14,-14,/,-6.4,-0.1,/
CN(C)S(=O)(=O)c1ccc(Oc2ccc(S(=O)(=O)N(C)C)cc2)cc1,/,-1.0,2,-17,?,4.0,0.7,-8%
O=C(NC(=S)N1CCN(Cc2ccccc2)CC1)c1ccco1,-7.4,0.1,-11,-9,-2,-4.4,6.0,18%
N=c1oc2ccccc2cc1C(=O)N/N=C/c1ccccc1,/,-7.3,?,-10,3,-2.3,3.5,4%
COc1ccccc1CNC(=O)COC(=O)c1cc(=O)[nH]c2ccccc12,-4.2,-0.2,/,/,0,1.5,/,-2%
CCC(C)SCc1nc2ccccc2[nH]1 (stereo not drawn),/,0.6,-5,-16,0,-1.9,1.7,3%
Cc1c(Cc2ccccc2)c(=O)oc2cc(OCC(N)=O)ccc12,-0.5,-0.2,4,-21,1,-1.9,7.4,19%
CN(Cc1c(F)cccc1Cl)C(=O)CNC(=O)c1sc2ccccc2c1Cl,0.1,-0.1,11,38,0,-2.3,/,/
NS(=O)(=O)c1ccc(CCNC(=O)CSc2nc3ccccc3c(=O)n2CC2CCCO2)cc1 (stereo not drawn),0.6,-1.4,9,-5,2,-2.7,0.1,/
CCN1CCN(c2ccc(S(=O)(=O)N3CCOCC3)cc2NC(=O)/C=C/c2ccc(C)cc2)CC1,11,-0.1,2,29,/,1.8,-4.7,-9%
COc1ccc(-n2nc3c(N4CCC(C(=O)N5CCC(C)CC5)CC4)nnc(C)c3c2C)cc1,-1.8,-0.7,68,30,2,-2.3,-49,/
Cc1nc(SCc2ccc(C(=O)O)cc2)nc2c1CCCC2,-14,0.1,15,2,1,-1.2,2.3,-7%
COc1ccccc1C(=O)NCCC(=O)NC1CCCC(C)C1C (stereo not drawn),-0.9,0.9,4,-13,-7,-2.7,-0.3,-5%
Cc1ccccc1C(=O)NNC(=O)CSc1nnc(-c2ccncc2)n1-c1ccccc1,2.0,1.2,-9,1,-3,4.6,-3.9,/
CCCN(C(=O)C1CCCN(c2ncnc3c2nc2n3CCCCC2)C1)c1ccc(F)cc1 (stereo not drawn),0.9,-1.8,29,10,-2,2.0,2.9,/
COc1ccc(S(=O)(=O)NCc2ccccn2)cc1NC(=O)c1ccccc1C,-0.7,0.0,1,-9,/,2.8,?,10%
CCOC(=O)N1CCN(C(=O)CS(=O)(=O)Cc2nc(-c3ccccc3F)oc2C)CC1,3.8,0.3,-5,-7,-4,-0.4,2.2,/
Cc1sc(NC(=O)/C=C/c2ccco2)c(C(=O)O)c1C,-11,-6.2,-5,0,4,1.4,?,?
O=C(NC1CCN(Cc2ccc(F)cc2)CC1)c1ccccc1,-0.1,0.2,14,15,-5,-4.6,5.9,-6%
CCn1nc(C)c(CN2CCCC(CO)(Cc3ccccc3)C2)c1C (stereo not drawn),1.8,0.3,10,11,-1,-0.5,-4.5,1%
O=S(=O)(NC(=NCc1ccccc1)c1ccccc1)c1ccc(Br)cc1,-6.5,0.2,8,-2,/,0.4,-0.6,-4%
COc1ccc(N(CC(=O)N2CCN(c3ccccc3)CC2)S(=O)(=O)c2c(C)noc2C)cc1,1.4,0.0,1,2,-6,1.3,1.7,-3%
COc1cc(OC)cc(C(=O)NC(C)CNc2ccc(Cl)cc2[N+](=O)[O-])c1 (stereo not drawn),2.7,-0.1,4,15,-2,2.2,-1.7,0%
Cc1ccccc1Cn1c(C(C)O)nc2ccccc21 (stereo not drawn),/,0.4,-3,-7,-2,2.2,6.4,1%
Cc1ccc(CC2CC(=O)N(c3ccc(Cl)cn3)C2=O)cc1 (stereo not drawn),/,-0.6,9,-11,-3,-1.0,2.4,?
O=C(COc1ccc2c3c(c(=O)oc2c1)CCC3)N1CCCC1,-2.2,0.2,3,1,4,2.0,1.7,/
CCOc1ccc(N=Nc2cc(C(C)C)ccc2O)cc1,/,-0.3,1,-3,10,0.7,-4.5,1%
Cc1cc(C)n2c(SCC(=O)NC3CCCCC3)nnc2n1,-0.7,0.0,10,-14,-1,0.4,1.6,/
Cc1nc2ccccc2c(=O)n1NC(=O)c1ccc(Cl)c(Cl)c1,-1.0,1.9,5,-1,2,-1.8,0.4,-6%
CN(CCCS(=O)(=O)[O-])c1ccc(/C=C/c2ccc3ccccc3[n+]2C)cc1,-2.6,0.4,-6,-12,14,0.4,1.3,-8%
CC(NC(=O)c1ccc2c(c1)S(=O)(=O)N=C1CCCCCN12)c1ccc(S(N)(=O)=O)cc1 (stereo not drawn),-0.9,-1.2,1,-7,0,-1.7,5.8,-9%
O=C(Nc1ccccc1Cl)c1cc(S(=O)(=O)N2CCCCC2)ccc1N1CCOCC1,/,-0.5,-22,13,0,-3.2,0.2,19%
CC(C)CNC(=S)N(CCN(C)C)Cc1cc2cc3c(cc2[nH]c1=O)OCCO3,1.0,0.1,51,12,-5,2.2,4.3,-28%
CN(CC(=O)Nc1cccc(S(=O)(=O)NC2=NCCC2)c1)Cc1cccc(F)c1,-1.2,0.5,/,/,-7,-2.8,/,-7%
CC(C)CCNC(=O)Cn1c(=O)oc2cc(S(=O)(=O)N3CC(C)CC(C)C3)ccc21 (stereo not drawn),3.6,0.2,-6,-2,/,-2.3,0.3,-1%
Cc1cc(C)c(S(=O)(=O)N2CCOC2CNC(=O)C(=O)NCc2ccncc2)c(C)c1 (stereo not drawn),0.0,-1.1,16,-7,1,2.1,-3.5,/
Cc1noc(C)c1CCC(=O)Nc1c(C(C)C)cccc1C(C)C,-4.6,1.1,/,/,1,5.2,/,3%
COc1ccccc1NC(=O)CN1CCN(CC(=O)Nc2ccc(F)cc2)CC1,/,0.9,/,/,-3,4.1,/,-5%

# Next section:
Molecule,AF4-AF9 inh,A1 inh,Calb FLC,T cruzi repl,Beta apoptosis,LANA-H2B inh,RanGTP-Impb inh,Vif A3G
C=CCN(C(=O)c1ccc(Cl)cc1)c1ccccc1C(=O)NCC(=O)O,/,0.1,16,8,-7,1.6,3.9,-14%
N=c1c2c(n(Cc3ccc(F)cc3)c3c1CCC3)CCCC2,-0.7,-0.7,-25,63*,23,-0.8,2.1,16%
COc1cccc(C(=O)N2CCN(Cc3ccc4c(c3)OCO4)CC2)c1OC,/,2.4,-7,-6,0,-7.5,0.4,14%
COC(=O)CCC(=O)COc1ccc(OC)cc1C#N,/,-0.3,6,-14,-2,-0.5,?,1%
O=C(c1ccccc1)C1Oc2ccccc2C2CC(c3cccs3)=NN12 (stereo not drawn),11,0.0,1,9,3,0.4,-0.8,7%
CSCCC(=O)N(C)CC1CCCN(CCc2cccc(C(F)(F)F)c2)C1 (stereo not drawn),4.0,-0.6,-6,55*,/,1.7,-0.1,/
CN(C)CCCNC(=O)c1ccc2[nH]c3ccccc3c2c1,/,0.1,-4,43,-1,0.8,-2.0,22%
COc1ccc(/C=C2\Oc3cc(OC(=O)N4CCOCC4)ccc3C2=O)c(OC)c1,-1.8,0.0,10,16,-1,0.7,-18,-11%
CCCCn1c(N)c(N(CC)C(=O)c2ccccc2F)c(=O)[nH]c1=O,-6.9,0.8,-1,-2,-2,-0.7,-1.9,7%
CCOC(=O)N1CCN(c2ncnc3scc(-c4ccc(Cl)cc4)c23)CC1,/,0.1,-20,0,2,-1.9,1.9,-1%

# Screening results as filed in PubChem.
